From PubChem BioAssay
Hsc70 ATP site – Hsc70 inhibitors, probe displacement, primary screen, biochemical, fluorescence polarization (AID 568). Hsc70 fluorescence polarization, probe displacement; higher % means a stronger effect; strong numbers were not always called active. 83,000 tested, under 10 active. one-dose displacement, % at 20 µM; IC50 in µM for titrated hits;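 active = displacement above 50% without optical interference and an IC50 on retest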;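 note: ATPase domain with a fluorescein-tagged ATP probe; 0% = vehicle and 100% = excess ADP; read after one hour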
MT1-MMP promoter – MT1-MMP gene expression reporter suppression – cell-based, luciferase reporter, luminescence (AID 618) | MT1-MMP promoter luciferase reporter cells, luminescence | calls from a first round at 10 µM; hits with a dose series show EC50 in µM | 87,000 tested, 0.62% active;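 active = over half of the reporter light lost at 10 µM or EC50 under 50 µM; inactive = the rest and hits that failed the dose series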;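 note: actives suppress MT1-MMP promoter-driven transcription so potencies describe inhibitors; HT1080 fibrosarcoma cells; overnight exposure; toxic or luciferase-blocking compounds were not removed from the actives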
WNV NS2B-NS3 inh – WNV NS2B-NS3 proteinase inhibition; P06935; WNV NS2B-NS3 protease, fluorogenic substrate Ex360/Em465; stronger effect = lower value; z-score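 (tested at a level between 10 and 100 µM)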; 65,000 tested, 0.18% active; AID 577;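 active = z-score at -3 or under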;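 note: score is relative to mean and spread of the compound wells of a plate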
Target sequence (P06935 1371-1501 limits assumed): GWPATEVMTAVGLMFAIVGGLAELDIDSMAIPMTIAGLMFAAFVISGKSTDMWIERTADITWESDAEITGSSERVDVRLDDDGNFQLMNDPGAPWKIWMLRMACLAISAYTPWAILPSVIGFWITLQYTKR
Target sequence (P06935 1502-1679 limits assumed): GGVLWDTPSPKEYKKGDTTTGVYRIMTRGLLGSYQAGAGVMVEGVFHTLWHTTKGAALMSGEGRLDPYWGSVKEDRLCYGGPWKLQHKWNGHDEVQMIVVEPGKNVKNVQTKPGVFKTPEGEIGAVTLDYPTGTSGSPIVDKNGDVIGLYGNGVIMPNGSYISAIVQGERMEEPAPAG
* = called active by the depositor; i = inactive; x = no result given.

SMILES	Hsc70 ATP site	MT1-MMP promoter	WNV NS2B-NS3 inh
CC(C)(C)C(=O)/C=C(N)/C=C/c1ccccc1	-7.3%	i	1.2
O=C(Nc1cc(N2CCOCC2)ncn1)Nc1cccc2ccccc12	2.0%	i	-0.15
CCC1CCCCN1C(=O)Nc1ccc(F)cc1 (stereo unspecified)	3.0%	i	-0.71
CCCc1nc(N)c(C#N)c(-c2ccco2)c1CC	1.0%	i	-0.41
N=c1sccn1CC(=O)Nc1ccccc1-c1ccccc1	-0.3%	i	1.3
O=C(O)c1cc2c(ccc3ccccc32)[nH]1	-8.9%	i	0.53
COc1ccc(C2C(C(C)=O)=C(C)N=c3s/c(=C\c4cc(C)n(C)c4C)c(=O)n32)c(OC)c1 (stereo unspecified)	-138%	i	-0.43
CCOC(=O)c1c(NC(=O)c2ccc(Cl)s2)sc(C)c1C	5.2%	i	0.77
Cc1ccc(C)c(NC(=O)c2ccccc2O)c1	0.5%	i	-0.93
COc1ccc(NC(=O)CCN2CCCC2)c(OC)c1	-1.6%	i	x
CCOC(=O)C1CCN(Cc2ccc(F)c(F)c2)CC1	2.5%	i	x
COC(=O)c1ccc(CSCC(=O)Nc2cc(OC)cc(OC)c2)o1	-1.9%	i	-0.19
CC1CCCN(c2nc3c(c(=O)n(C)c(=O)n3C)n2Cc2ccccc2)C1 (stereo unspecified)	-0.9%	i	-0.56
C=CC(=O)NC(C)(C)Cc1ccccc1	3.7%	i	x
O=C(NCCCN1CCOCC1)c1ccc(S(=O)(=O)N2CCOCC2)cc1	6.6%	i	0.54
CCC(=O)Nc1ccc(C(=O)CSc2nnc(CNc3ccc(Cl)cc3)o2)cc1OC	1.4%	i	-1.2
COc1ccc(NC(=S)NCCc2ccc(Cl)cc2)c(OC)c1	-2.1%	i	x
COCCCNC(=O)c1ccc(Cn2c(=O)c3ccccc3n(Cc3cc(C)ccc3C)c2=O)cc1	-0.3%	i	x
Cc1nn(C)c(N)c1C(O)(c1nccn1C)C(F)(F)F (stereo unspecified)	6.9%	i	0.11
CCCC(C(=O)NC1CCCC1)N(CC1CCCO1)C(=O)c1snc(C(N)=O)c1N (stereo unspecified)	-2.2%	i	-0.89
CCOc1ncccc1C(=O)OCC(=O)Nc1cc(C)ccc1C	-0.4%	i	x
O=C(Nc1sccc1C(=O)N1CCOCC1)c1cccnc1	-0.2%	i	-0.88
CCCc1c(C)[nH]c2ccc(NC(C)=O)cc2c1=O	2.2%	i	x
COCCN1C(=O)C(O)=C(C(C)=O)C1c1ccc(F)cc1 (stereo unspecified)	-1.1%	i	-1.3
CCCN1C2CCCC1CC(NC(=O)c1ccccc1OCC)C2 (stereo unspecified)	-1.6%	i	0.17

By substructure: the compounds so far containing a thiophene ring, fused or not
SMILES	Hsc70 ATP site	MT1-MMP promoter	WNV NS2B-NS3 inh
CCOC(=O)c1c(NC(=O)c2ccc(Cl)s2)sc(C)c1C	5.2%	i	0.77
O=C(Nc1sccc1C(=O)N1CCOCC1)c1cccnc1	-0.2%	i	-0.88

(further entries)
SMILES	Hsc70 ATP site	MT1-MMP promoter	WNV NS2B-NS3 inh
O=C(CCn1nc(-c2ccccc2)c2ccccc2c1=O)NCC1CCCO1 (stereo unspecified)	-6.3%	i	0.11
O=C(COc1ncnc2c(Cl)cc(Cl)cc12)N1CCCCC1	-1.3%	i	0.89
CCOC(=O)C1CCCN(c2c(NCCCN(CC)c3ccccc3)c(=O)c2=O)C1 (stereo unspecified)	-0.4%	i	0.26
CCOC(=O)C1CCCN(c2c(NCCCN(C)Cc3ccccc3)c(=O)c2=O)C1 (stereo unspecified)	1.4%	i	-0.25
CS(=O)(=O)N1CCN(C(=O)c2cc(-c3ccccc3)nc3ccccc23)CC1	-5.1%	i	x
O=C(OCCCN1CCCCC1)c1ccc(O)cc1	-1.0%	i	0.25
CCOC(=O)NC(Nc1cc(C)ccn1)(C(F)(F)F)C(F)(F)F	0.0%	i	-0.71
CCCNC(=O)Nc1nccs1	3.6%	i	x
CN1CCC(OC(=O)COc2ccccc2)CC1	-4.2%	i	x
Cc1cc(-c2nnc(SCc3cccnc3)o2)no1	-2.9%	i	0.2
Cc1ccc(NC(=O)NC2CCN(CC(=O)Nc3nccs3)CC2)cc1	1.2%	i	0.24
CC(C)(C)c1ccc(C(=O)CC(=O)c2cc(Cl)ccc2O)cc1	-7.1%	i	x
COc1ccc(NC(=S)NC(NC(=O)c2ccccc2Cl)C(Cl)(Cl)Cl)c([N+](=O)[O-])c1 (stereo unspecified)	5.2%	i	x
COc1cc2c(cc1OC)C1Cc3ccc(OC)c(OC)c3CN1CC2 (stereo unspecified)	2.5%	i	-1.6
Cn1c(SCC(=O)NCC2CCCO2)nc2c([nH]c3ccccc32)c1=O (stereo unspecified)	-1.3%	i	x
Cc1cc2oc(=O)cc(CSc3nc(N)cc(N)n3)c2cc1C(C)C	-4.1%	i	x
COc1ccc(NCc2nnc(SCC(=O)Nc3ccccc3OC)o2)cc1	2.3%	i	x
Cc1sc2ncnc(NCCCn3ccnc3)c2c1C	-5.8%	i	-1.1
Cc1ccc(CC(CC(=O)NCCc2ccc3c(c2)OCO3)C(=O)O)cc1 (stereo unspecified)	3.6%	i	x
O=c1[nH]c(SCc2ccc(Cl)cc2)nc2c1CCC2	-5.1%	i	-0.52
COc1cccc(C2=NOC(C(=O)NCC3CCCO3)C2)c1 (stereo unspecified)	-6.6%	i	1.2
COc1ccc(C(=O)CCC(=O)N2CCN(c3ccc(N4CCOCC4)nn3)CC2)cc1	3.8%	i	-0.12
CCCCOc1ccccc1C1C(C(=O)OC)=CN(CC)C=C1C(=O)OC	1.1%	i	2.3
Cc1ccc(O)c(C(=O)CC(=O)c2cccc(F)c2)c1	1.9%	i	-1.2
O=C(O)CCC1=C2c3ccccc3CCN2C(=O)CC1	-2.9%	i	-1.2

The list continues.
SMILES	Hsc70 ATP site	MT1-MMP promoter	WNV NS2B-NS3 inh
CCOC(=O)C1=C(C)NC(=O)NC1c1ccoc1 (stereo unspecified)	4.8%	i	0.96
COc1ccc(C(=S)N2CCCC2)cc1	-1.2%	i	x
CN(c1ccccc1C(=O)N1CCCC1)S(C)(=O)=O	5.8%	i	-0.8
Cc1ccc(C2=[N+]([O-])C(C)(C)CC2)cc1	5.5%	i	x
COCCN1CCn2c(nc3cc(NC(=O)c4ccc(OC)cc4)ccc32)C1	-1.4%	i	-1.1
CCCCS(=O)(=O)C1CCS(=O)(=O)C1 (stereo unspecified)	4.5%	i	x
Cc1ccc(CNC(=O)C2CCCN(S(=O)(=O)c3c(C)noc3C)C2)cc1 (stereo unspecified)	6.2%	i	x
Cc1ccc(CN2C(=O)CCC2C(=O)NC2CCCC2)cc1 (stereo unspecified)	-5.0%	i	0.67
Cc1cc(C)nc(SCCS(=O)(=O)Cc2ccc(Cl)cc2)n1	-3.5%	i	x
COc1ccc(C2C(C#N)=C(N)N3C(=C2C#N)Sc2ccccc23)cc1 (stereo unspecified)	-65%	i	0.38
O=c1c2ccccc2nnn1Cc1nnc(-c2ccccc2Br)o1	-0.6%	i	0.11
COC(=O)c1ccc(CN(C(C)=O)c2ccccc2)o1	0.0%	i	1.1
COc1ccc(OC)c(NC(=O)CN2C(=O)c3ccccc3S2(=O)=O)c1	-1.4%	i	-1.7
COC(=O)C(NC(=O)c1ccccc1)=C1CCCCC1	-8.4%	i	3.5
O=S(=O)(/C=C/c1ccccc1)Oc1ccccc1	-4.2%	i	x
CCCCn1c(C(C)O)nc2ccccc21 (stereo unspecified)	4.1%	i	0.29
CCCN(CCC)CCNC(=O)Cn1cnc2sc(C)c(S(=O)(=O)N3CCOCC3)c2c1=O	-2.6%	i	x
NC(=O)CNC(=O)C1CCCc2c1[nH]c1ccc(Cl)cc21 (stereo unspecified)	5.7%	i	-0.25
O=C(COC(=O)COc1ccccc1)Nc1ccc(OC(F)(F)F)cc1	-1.5%	i	x
CCCn1c(N)c(N2CCCCC2)c(=O)n(CC(=O)Nc2ccccc2C)c1=O	-2.2%	i	x
O=C(CSc1nnc(-c2ccccc2)n1Cc1ccccc1)N1CCOCC1	1.3%	i	0.07
O=C(Nc1ccccc1C(=O)NCc1cccnc1)c1ccco1	1.1%	i	-0.47
CC(=O)c1c(N2CCCC2)[nH]c(-c2ccccc2)nc1=S	2.0%	i	x
CC(C)CC(=O)N1CCN(C(=O)c2cccc(F)c2)CC1	-2.3%	i	1.7
CCCCc1ccc(NC(=O)N[C@H](C(=O)O)C(C)CC)cc1 (stereo partly specified)	6.2%	i	0.02

(cont.)
SMILES	Hsc70 ATP site	MT1-MMP promoter	WNV NS2B-NS3 inh
Cc1cc(C(=O)NCC(c2ccco2)N(C)C)no1 (stereo unspecified)	-1.2%	i	-0.95
CCOc1nc(-c2ccccc2)ccc1-c1noc(-c2cccnc2)n1	1.6%	i	-0.04
COc1ccc(CCNC(=O)C2CC(=O)N(C3CCCCCCC3)C2)cc1OC (stereo unspecified)	2.7%	i	x
Nc1nc2c(ncn2COCCO)c(=O)[nH]1	0.1%	i	-0.04
CCCCCCC(=O)Nc1ccc(Cl)cn1	-2.7%	i	-0.36
CCCSc1nc(C)c(-c2csc(C(C#N)=C3CCCC3)n2)cc1C#N	-23%	i	-1.6
Cc1c(Cl)cccc1-n1nnnc1-c1cccs1	3.0%	i	0.09
Cc1ccc2c(c1)N(CC(=O)NCC1CCCO1)C(=O)C(C)O2 (stereo unspecified)	3.1%	i	x
COc1ccccc1N1CCN(C(=O)c2oc3cc(C)c(C)cc3c2C)CC1	8.0%	i	-0.74
Cc1c(C(=O)c2no[n+]([O-])c2C(=O)c2cnn(C)c2C)cnn1C	2.3%	i	-0.55
CCS(=O)(=O)Nc1ccc(C2=NN(S(=O)(=O)c3ccc(F)cc3)C(c3ccco3)C2)cc1 (stereo unspecified)	-33%	i	x
CCCCN(CC)Cc1ccc(CNC(=O)Nc2ccc(F)cc2)o1	0.6%	i	x
O=C(CCN1C(=O)c2ccccc2C1=O)Nc1sc2c(c1C(=O)NCc1ccco1)CCCC2	14%	i	-0.66
O=C(CCNS(=O)(=O)c1cccs1)Nc1nccs1	3.2%	i	-0.83
COc1cccc(C2CC(=O)Nc3cc4c(cc32)OCCO4)c1OC(C)C (stereo unspecified)	1.1%	i	-1
Cc1ccc(NC(=O)c2oc3ccccc3c2NC(=O)c2ccc3c(c2)OCO3)cc1	0.3%	i	1.2
COc1ccc(N2Cc3cccc(C(=O)NC(C)CCc4ccco4)c3C2=O)cc1 (stereo unspecified)	3.2%	i	-1.1
COc1cc(OC)cc(-c2nc(-c3ccc(Br)cc3)no2)c1	-7.7%	i	-1.1
CC(C)(C)n1ncc(Oc2ccc(Oc3cnn(C(C)(C)C)c(=O)c3Cl)cc2)c(Cl)c1=O	-5.3%	i	x
COc1cccc(N2CCN(C3C4CC5CC(C4)CC3C5)CC2)c1 (stereo unspecified)	-2.1%	i	x
COc1ccc(NC(C)=O)cc1NC(C)C(=O)Nc1ccccc1F (stereo unspecified)	0.0%	i	-0.9
CC(C(=O)O)N1C(=O)c2cccc3cccc1c23 (stereo unspecified)	-1.1%	i	-0.83
CSc1nc(C)cc(NC(N)=O)n1	1.7%	i	-0.35
O=C(Nc1cc(Cl)ccc1Oc1ccccc1)c1cnccn1	5.3%	i	x
O=C(NC(Cc1ccc2c(c1)OCO2)C(=O)N1CCCC1C(=O)O)c1ccccc1 (stereo unspecified)	2.5%	i	-0.27

Whole records as entered above. Screens in order: Hsc70 ATP site | MT1-MMP promoter | WNV NS2B-NS3 inh
Entry for `COc1ccccc1N1CCN(C(=O)c2oc3cc(C)c(C)cc3c2C)CC1` : 8.0% | i | -0.74
Entry for `CSc1nc(C)cc(NC(N)=O)n1` : 1.7% | i | -0.35
Entry for `Cc1cc(C(=O)NCC(c2ccco2)N(C)C)no1` (stereo unspecified) : -1.2% | i | -0.95
Entry for `CCOc1nc(-c2ccccc2)ccc1-c1noc(-c2cccnc2)n1` : 1.6% | i | -0.04
Entry for `COc1ccc(N2Cc3cccc(C(=O)NC(C)CCc4ccco4)c3C2=O)cc1` (stereo unspecified) : 3.2% | i | -1.1

3 compounds already listed, sorted by SMILES length, lowest first.
SMILES	Hsc70 ATP site	MT1-MMP promoter	WNV NS2B-NS3 inh
CCCCN(CC)Cc1ccc(CNC(=O)Nc2ccc(F)cc2)o1	0.6%	i	x
COc1cc(OC)cc(-c2nc(-c3ccc(Br)cc3)no2)c1	-7.7%	i	-1.1
Cc1c(C(=O)c2no[n+]([O-])c2C(=O)c2cnn(C)c2C)cnn1C	2.3%	i	-0.55

Individual results from the results shown:
CCCCS(=O)(=O)C1CCS(=O)(=O)C1 (stereo unspecified) in Hsc70 ATP site shows 4.5%
Cc1ccc(CNC(=O)C2CCCN(S(=O)(=O)c3c(C)noc3C)C2)cc1 (stereo unspecified) in Hsc70 ATP site shows 6.2%
O=c1c2ccccc2nnn1Cc1nnc(-c2ccccc2Br)o1 in WNV NS2B-NS3 inh shows 0.11

Next compounds:
SMILES	Hsc70 ATP site	MT1-MMP promoter	WNV NS2B-NS3 inh
COC(=O)C1=CN(CCCN2CCCC2=O)C=C(C(=O)OC)C1c1ccccc1C(F)(F)F	3.8%	i	1.4
COc1ccc(C(=O)Nc2ccc(N3CCOCC3)cc2)cc1OC	0.2%	i	0.99
Cc1nc2nc(C)c(CCC(=O)O)c(C)n2n1	0.6%	i	x
O=C(CSc1nnc(CCc2ccccc2)n1-c1ccc(Cl)cc1)NCc1ccccc1	-0.4%	i	x
CCOC(=O)c1cc2oc(C)cc2n1CC(=O)OC1CCCCC1	2.1%	i	-0.85
Cc1ccc2nc(-c3ccccn3)cc(C(=O)N3CCN(c4ncccn4)CC3)c2c1	3.9%	i	0.46
CC(C(=O)NC(=O)NC1CCCCC1)N1CCN(c2ccccn2)CC1 (stereo unspecified)	2.2%	i	0.4
